# Sa growth 42C = S. aureus growth inhibition. S. aureus RN4220 growth, OD600, 20 h, 42 °C; active compounds read low. relative growth, % (test concentration not listed). 0.53% of 170,000 active;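 active = growth at 42 °C up to 50% and 20 or more points under that at 30 °C, or under 10% at both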;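 also: 300 nL library stock went into each well; scaled to the means of positive and negative controls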
# GIV-Gai inh = blocks GIV peptide binding to rat Galpha-i3; Galpha-i3/FITC-GIV peptide fluorescence polarization, 90 min; active compounds read low; scaled: aluminum fluoride 0%, vehicle 100%; 0.42% of 210,000 active; AID 1224905; percent of control (FP), % (concentration not given with the values); P08753;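 active = replicate mean at 85% of control or lower, very high polarization wells dropped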;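 also: wells of about 15 µL received 100 nL stock; the first replicate is given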
# Target sequence (P08753 whole entry, looked up): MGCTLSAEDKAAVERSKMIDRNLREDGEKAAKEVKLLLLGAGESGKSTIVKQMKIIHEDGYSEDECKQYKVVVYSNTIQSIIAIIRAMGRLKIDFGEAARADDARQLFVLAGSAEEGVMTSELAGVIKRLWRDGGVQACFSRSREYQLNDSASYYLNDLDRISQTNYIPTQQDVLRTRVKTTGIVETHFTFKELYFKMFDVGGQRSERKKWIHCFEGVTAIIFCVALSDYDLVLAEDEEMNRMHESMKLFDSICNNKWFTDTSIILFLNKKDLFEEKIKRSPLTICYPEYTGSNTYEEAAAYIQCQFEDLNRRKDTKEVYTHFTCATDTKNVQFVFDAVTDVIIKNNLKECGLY
# HCMV NEC inh = inhibitors of HCMV UL50-UL53 nuclear egress complex interaction; 0.15% of 190,000 active; inhibition, % (concentration not given with the values); HTRF UL50-UL53 interaction, normalized percent inhibition;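 active = both replicates at 50% or more, plus weaker picks with an unusually low signal ratio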;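 also: stock transfer was 100 nL into about 20 µL; 0% = negative control wells and 100% = wells with untagged competitor protein; inactives centre near -12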
# Sa growth 42C second temp = recorded beside Sa growth 42C, whose call it bears; relative growth, %; measured here: growth at 30 °C;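 optical density after 20 h as mean of two plates; 100% = untreated growth and lower means inhibition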
# * hit, by the source's call; . = not tested or not shown. The order is random; 0.8% or so of the library scored in one or more.
SMILES,Sa growth 42C,Sa growth 42C second temp,GIV-Gai inh,HCMV NEC inh
O=C(CCS(=O)(=O)c1cccs1)N1CCCC1,101,105,100,5
Cc1ccc(OCc2nc(C#N)c(NCCCN3CCOCC3)o2)cc1,97,99,109,7
CC1CCCN(C(=O)C2CCN(CC3CCCCC3)CC2)C1 (stereo unspecified),87,94,.,0
COc1ccc(-c2ccc(CCC(=O)O)n2C(C)C)cc1,135,118,.,0
COC(=O)Cn1[nH]c(=O)c2ccccc2c1=O,85,93,.,-2
O=c1[nH]c(CN2CCN(S(=O)(=O)c3ccccc3C(F)(F)F)CC2)nc2scc(-c3cccs3)c12,109,95,.,-27
Cc1cc(C)c(NC(=O)CS(=O)CC(=O)N2CCN(c3ccccc3)CC2)c(C)c1 (stereo unspecified),85,90,104,-18
CC(C)(C)n1ncc2c(=O)n(Cc3cccc(F)c3)cnc21,.,.,102,-9
Cc1cc(C(=O)Nc2c(C)cccc2C)c2ccccc2n1,.,.,106,-20
CNc1nc(Oc2ccc(=O)n(C)n2)nc(N2CCOCC2)n1,98,91,101,-8
COC(=O)c1ccc(CSc2ccccc2C)o1,93,87,93,.
CNCC(O)COc1ccccc1 (stereo unspecified),86,90,105,-29
Cn1cccc1C(=O)Nc1cccc(C(F)(F)F)c1,112,85,.,-2
Cc1nn(-c2ccc(N3CCCCC3)nn2)c(C)c1CCC(=O)NCC1CCCO1 (stereo unspecified),.,.,101,-40
N#CC1=C(c2ccccc2)C(c2ccccc2)OC1=O (stereo unspecified),93,106,99,-36
CC(C)c1ccc(OCC(=O)NCC(c2ccc(Cl)cc2)N2CCOCC2)cc1 (stereo unspecified),96,77,100,-14
Clc1ccc(CSc2nnc(COc3ccccc3)o2)cc1,97,96,100,-13
O=C(CSc1ncn[nH]1)c1ccc(Br)cc1,.,.,102,-29
CC(C)C(=O)Nc1cccc(N2CCn3c(nc4cc(Cl)ccc43)C2)c1,.,.,101,24
CCN(CC)c1nc(N2CCOCC2)nc2ccccc12,79,92,105,-2
Cc1ccc2nc(NC(=O)C3CC(O)CN3C(=O)Oc3ccccc3)sc2c1 (stereo unspecified),102,86,.,-6
CCN1C(=O)c2cccc3c(S(=O)(=O)Nc4ccccc4)ccc1c23,104,76,104,.
Cc1nn(C)c(C)c1Nc1cnn(-c2ccccc2)c(=O)c1Cl,93,95,.,0
O=C(Nc1ccc2ccccc2n1)c1ccccc1,86,62,98,4
CS/C(Nc1ccccc1)=C(/C#N)S(=O)(=O)c1ccc(C)cc1,93,82,102,-8

# Next entries.
SMILES,Sa growth 42C,Sa growth 42C second temp,GIV-Gai inh,HCMV NEC inh
O=C(O)C1CCNCC1,.,.,104,-12
C=C(C)Cc1c(COC)nc(SCC(=O)C(C)(C)C)[nH]c1=O,112,74,98,-5
Nc1nc(CSc2nc3ccccc3s2)nc(Nc2ccccc2)n1,95,86,.,6
O=C(NCCc1cc2ccccc2[nH]1)c1ccc2snnc2c1,83,79,99,-3
Cc1csc(Nc2ccc(Cl)cc2)n1,120,85,92,-7
CCC(C(=O)Nc1ccc(C(=O)OC)cc1)n1nc(-c2ccc(C)cc2)c2c(c1=O)CCCC2 (stereo unspecified),101,88,108,22
Cc1ccc(NC(=O)c2ccc3nnc(C)n3c2)cc1F,.,.,103,-52
CC(=O)Nc1ccc(C)cc1S(=O)(=O)N1CCN(Cc2nc3cc(C(=O)N4CCCCC4)ccc3o2)CC1,.,.,103,-14
CC1=C(O)C(=O)C(/C=N/NC(N)=O)C1 (stereo unspecified),90,84,101,-49
Cc1cc(C)nc(N(C#N)CN2C(=O)c3ccccc3S2(=O)=O)n1,.,.,107,-20
O/N=C/c1nn(-c2ccccc2)cc1Br,98,78,105,2
O=C(Oc1ccc(C=Nc2ccc(F)c(F)c2F)cc1)c1cccnc1,116,82,.,-34
CC(=O)NC1=NC(=O)/C(=C/c2c(C)n(Cc3ccc(F)cc3)c3ccccc23)S1,.,.,128,-28
Cc1ccc(C(=O)C2Sc3nnc(C)n3NC2c2ccc(Cl)cc2)cc1 (stereo unspecified),95,93,.,-16
O=C(NC1CC1)c1cc2n(n1)CCCN(Cc1cccc(F)c1)C2=O,.,.,101,-18
Cc1ccc(-c2ccc(CCC(=O)O)n2-c2ccc(C(N)=O)cc2)cc1,90,85,98,-26
NC12CC3CC(C1)CC(c1ccccc1)(C3)C2,85,94,.,-2
CCCN1CCN(C(=O)C2COc3ccccc3O2)CC1 (stereo unspecified),84,83,100,-33
Cc1cc(C)c2c(=O)cc(C(=O)Nc3ccc(S(=O)(=O)Nc4nc(C)cc(C)n4)cc3)oc2c1,94,90,107,0
CCN(C(=O)CSc1nc2ccccc2n1CCC#N)C1=CCCC1,95,88,.,-24
CCOc1cccc(C2c3c(-c4cc(C)ccc4O)n[nH]c3C(=O)N2Cc2ccco2)c1 (stereo unspecified),35*,66*,101,-33
COc1ccc(/C=C/c2nc3sc4c(c3c(=O)o2)CCCC4)cc1,.,.,109,8
Cc1ccc(Cl)cc1NC(=O)CN1C(=O)CSc2ccc(S(=O)(=O)N3CCCC3)cc21,121,88,108,.
CCc1ccc(Cn2ncc3c(C(=O)O)cc(C)nc32)cc1,102,104,.,1
COc1ccccc1CCNC(=O)CCc1c(C)c2cc3c(C)coc3cc2oc1=O,117,94,98,-6

# Next part.
SMILES,Sa growth 42C,Sa growth 42C second temp,GIV-Gai inh,HCMV NEC inh
CCOC(=O)c1c(/N=c2\oc3ccc4ccccc4c3cc2C(N)=O)sc2c1CCCC2,93,78,99,.
Cc1n[nH]c(C)c1Cc1ccc(C(=O)O)cc1,93,83,100,-15
O=C(Cc1ccccc1)NN1C(=O)c2ccccc2C1=O,113,113,93,-22
Cc1nc2ccccn2c1C(=O)NC1CCCC1,94,89,101,-12
CCC(Sc1nccn1C)C(=O)Nc1ccc(S(N)(=O)=O)cc1 (stereo unspecified),93,92,109,7
COC(=O)c1ccc(-c2ccco2)n1CC(=O)NCCN1CCN(C)CC1,100,89,104,.
CC(C)(C)n1nnnc1C(c1ccc2ncccc2c1)N1CCc2ccccc21 (stereo unspecified),110,82,105,-20
CC(C)(C)c1ccc(NC(=O)c2cnccn2)cc1,96,92,102,-24
O=C(Cn1c(=O)n(-c2ccccc2)c(=O)c2cc(-c3ccccc3)sc21)c1cccs1,95,98,107,-5
CCOC(=O)C1=C(c2ccccc2)N2CCS(=O)(=O)N=C2S1,103,93,.,10
COc1ccc(-c2cc3n(n2)CCC(=O)N3Cc2ccc(C(=O)N3CCC(C(N)=O)CC3)cc2)cc1,.,.,104,-8
CCOc1ccc(C(=O)Nc2ccc(-c3nc4cc(CC)ccc4o3)cc2)cc1,95,88,106,-32
Cc1[nH]c2ccccc2c1/C=N/NC(=O)CN1CCSCC1,95,106,108,1
O=C(Nc1ccccc1)N1CCCN(c2nccc(C(F)(F)F)n2)CC1,98,98,105,-10
CCOc1ccc2nc(SCC(=O)O)c(C)cc2c1,136,108,99,-26
N#CCCN1CCN(Cc2ccccc2)CCC1=O,84,88,101,-20
CCCN(CCC)c1ccc(/C=N/NC(=O)OCC)cc1,92,89,105,-20
O=C(Nc1ccc(F)cc1)c1c(Cl)nc2ccccn12,111,91,.,-17
Cc1ccc(NC(=O)Cn2c(=O)n(CC(=O)NCCc3ccccc3)c(=O)c3ccccc32)cc1C,104,103,108,-38
CC1CC(C)CN(C(=O)CSc2nnc(-c3ccc4c(c3)OCO4)n2-c2ccccc2)C1 (stereo unspecified),101,94,.,-6
COc1ccc(/C=C2\SC(=O)N(Cc3ccc(Br)cc3)C2=O)cc1O,.,.,101,-8
CC1C2CC(C/C2=N/O)C1(C)C (stereo unspecified),97,100,97,4
CCC1(CC)N=C(c2ccccc2)C(=S)N1,94,87,108,-28
CCOc1ccccc1-c1nc(-c2ccc(-c3ccccc3)nc2OCC)no1,87,83,100,-21
O=C(Nc1ccc(Cl)cc1)c1cnn(-c2ccc(Cl)cc2)c1,.,.,98,18

# The final 2 compounds of the part above lead into the next.
SMILES,Sa growth 42C,Sa growth 42C second temp,GIV-Gai inh,HCMV NEC inh
CCOc1ccccc1-c1nc(-c2ccc(-c3ccccc3)nc2OCC)no1,87,83,100,-21
O=C(Nc1ccc(Cl)cc1)c1cnn(-c2ccc(Cl)cc2)c1,.,.,98,18
O=C(Cn1cnc2c(nc3n2CCCCC3)c1=O)N1CCCc2ccccc21,116,93,104,-22
CC(=O)c1cccc(NC(=O)CCc2c(C)nc3nc(CN)nn3c2C)c1,106,91,98,-9
COc1ccc(/C=C(/NC(=O)c2ccccc2)C(=O)O)cc1,101,102,104,-1
N#Cc1c2c(c(N3CCCCC3)n3c1nc1ccccc13)CCC2,117,97,102,16
O=C(CN1C(=O)C2C3C=CC(C3)C2C1=O)N1CC=C(c2ccccc2)CC1 (stereo unspecified),92,90,105,.
COC(=O)c1ccc(-n2ncnc2-c2ccc(N(C)C)cc2)cc1,101,99,101,-22
C=CCNC(=O)c1scc2c1CCCC2,95,83,.,-9
Cc1noc(C)c1CSc1ncccc1C(=O)Nc1ccnn1C(C)C1CC1 (stereo unspecified),96,96,.,-3
FC(F)(F)c1cc(N2CCC(n3cccc3)CC2)c2ccccc2n1,103,92,100,-21
Cc1ccc(C2=NN(C(=O)c3cccnc3)C(c3ccccc3F)C2)cc1 (stereo unspecified),.,.,105,-18
N=c1cc(C2(O)CCCCC2)n2c(nc3ccccc32)s1,77,85,.,1
C=CCn1nc(SCC(=O)OCC)n2c(=O)c3c(nc12)-c1ccccc1CC3(C)C,.,.,110,-4
COc1ccc(CN2C(=O)CC(Cc3ccc(C)cc3)C2=O)cc1OC (stereo unspecified),106,81,103,.
COc1ccc(CNC(=O)c2nn3c(c2Br)NC(c2cccs2)CC3C(F)(F)F)cc1 (stereo unspecified),.,.,89,-17
Cc1nc(Nc2cccc(F)c2)c2c(C)noc2n1,.,.,104,9
O=C(NCCCN1CCOCC1)c1ccc(CN2C(=O)CCn3nccc32)cc1,123,91,104,.
Cc1ccc(NC(=O)Nc2cccs2)c(Cl)c1,89,89,105,5
Cc1cnn(C(=O)c2ccc(Br)o2)c1,114,104,105,-8
CC(C)NC(=O)c1cnn2c(C(F)F)cc(-c3ccccc3)nc12,97,70,107,-23
N/C(=N\NC(=O)c1ccccc1)c1cc2ccccc2oc1=O,95,92,107,-20
O=C(c1ccccc1F)N1CC(OCc2ccc(F)cc2)C1,.,.,100,-13
CCN(CC)C(=O)CCc1nc2sc3c(c2c(=O)[nH]1)CCCC3,104,99,.,7
COc1ccc(C2=N/C(=C\c3ccc(C)o3)C(=O)O2)c(Cl)c1,95,92,102,-50
CC1(c2ccc(F)cc2)CC(=O)c2cc(O)ccc2O1 (stereo unspecified),86,88,101,.

# Reprinted from the results shown for reference:
SMILES,Sa growth 42C,Sa growth 42C second temp,GIV-Gai inh,HCMV NEC inh
CNc1nc(Oc2ccc(=O)n(C)n2)nc(N2CCOCC2)n1,98,91,101,-8
COC(=O)c1ccc(CSc2ccccc2C)o1,93,87,93,.
CNCC(O)COc1ccccc1 (stereo unspecified),86,90,105,-29
Cn1cccc1C(=O)Nc1cccc(C(F)(F)F)c1,112,85,.,-2
Cc1nn(-c2ccc(N3CCCCC3)nn2)c(C)c1CCC(=O)NCC1CCCO1 (stereo unspecified),.,.,101,-40
N#CC1=C(c2ccccc2)C(c2ccccc2)OC1=O (stereo unspecified),93,106,99,-36
CC(C)c1ccc(OCC(=O)NCC(c2ccc(Cl)cc2)N2CCOCC2)cc1 (stereo unspecified),96,77,100,-14
Clc1ccc(CSc2nnc(COc3ccccc3)o2)cc1,97,96,100,-13
O=C(CSc1ncn[nH]1)c1ccc(Br)cc1,.,.,102,-29
CC(C)C(=O)Nc1cccc(N2CCn3c(nc4cc(Cl)ccc43)C2)c1,.,.,101,24
CCN(CC)c1nc(N2CCOCC2)nc2ccccc12,79,92,105,-2
Cc1ccc2nc(NC(=O)C3CC(O)CN3C(=O)Oc3ccccc3)sc2c1 (stereo unspecified),102,86,.,-6
CCN1C(=O)c2cccc3c(S(=O)(=O)Nc4ccccc4)ccc1c23,104,76,104,.
Cc1nn(C)c(C)c1Nc1cnn(-c2ccccc2)c(=O)c1Cl,93,95,.,0
O=C(Nc1ccc2ccccc2n1)c1ccccc1,86,62,98,4
CS/C(Nc1ccccc1)=C(/C#N)S(=O)(=O)c1ccc(C)cc1,93,82,102,-8
O=C(O)C1CCNCC1,.,.,104,-12
C=C(C)Cc1c(COC)nc(SCC(=O)C(C)(C)C)[nH]c1=O,112,74,98,-5
Nc1nc(CSc2nc3ccccc3s2)nc(Nc2ccccc2)n1,95,86,.,6
O=C(NCCc1cc2ccccc2[nH]1)c1ccc2snnc2c1,83,79,99,-3

# Bioassay records as filed in PubChem BioAssay.
